# From PubChem BioAssay
# PKD1 kinase inh: PKD1 (human) kinase inhibition; Q15139; PKD1 kinase fluorescence polarization assay; inhibition, %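 (about 10 µM by stock and volumes)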; 0.056% of 200,000 active; AID 797;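 active means inhibition of 50% or more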;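 further: controls were vehicle for no effect and a reference inhibitor for full effect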
# Target sequence (Q15139 whole entry, looked up): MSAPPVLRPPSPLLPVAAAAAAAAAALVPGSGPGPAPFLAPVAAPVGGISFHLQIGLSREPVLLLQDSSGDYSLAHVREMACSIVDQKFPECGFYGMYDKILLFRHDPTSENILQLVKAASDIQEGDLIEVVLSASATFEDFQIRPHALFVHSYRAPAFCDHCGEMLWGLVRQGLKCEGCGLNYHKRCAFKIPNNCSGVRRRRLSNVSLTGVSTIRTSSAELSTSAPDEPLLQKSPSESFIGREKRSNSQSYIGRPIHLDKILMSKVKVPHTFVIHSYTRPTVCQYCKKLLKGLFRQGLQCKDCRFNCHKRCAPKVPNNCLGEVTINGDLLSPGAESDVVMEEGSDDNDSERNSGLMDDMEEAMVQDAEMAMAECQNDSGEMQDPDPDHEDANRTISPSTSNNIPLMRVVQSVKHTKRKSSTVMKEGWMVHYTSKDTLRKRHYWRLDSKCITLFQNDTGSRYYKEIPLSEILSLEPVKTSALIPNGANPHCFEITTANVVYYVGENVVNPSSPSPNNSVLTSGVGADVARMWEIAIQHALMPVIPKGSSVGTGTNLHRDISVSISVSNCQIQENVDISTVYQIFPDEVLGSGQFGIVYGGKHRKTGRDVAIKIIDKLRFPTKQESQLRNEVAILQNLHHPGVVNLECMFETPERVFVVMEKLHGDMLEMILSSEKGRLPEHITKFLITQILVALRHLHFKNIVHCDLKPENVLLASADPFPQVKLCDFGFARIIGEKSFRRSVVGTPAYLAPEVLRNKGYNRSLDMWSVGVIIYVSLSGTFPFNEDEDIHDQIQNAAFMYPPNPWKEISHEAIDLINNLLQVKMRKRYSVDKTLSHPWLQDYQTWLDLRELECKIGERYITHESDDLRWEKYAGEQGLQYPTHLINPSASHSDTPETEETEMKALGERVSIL
# GALR2 agonist: agonists of human galanin receptor 2 (GALR2) | activation, %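 (tested at 5 µM)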 | AID 803 | GALR2-expressing cells, agonist activation read-out | 0.48% of 140,000 active;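 active means above mean plus 3 SD of all compounds, about 5% in these data, not always enough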;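 further: 0% = vehicle buffer wells and 100% = reference agonist at full effect; tested in CHO reporter cells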
# RGS16-Gao: regulators of human RGS16-Galphao interaction | bead-based flow cytometry RGS16-Galphao binding, fluorescence; actives lie on both sides | 0.38% of 220,000 active | binding response (% of control), % at 10 µM | O15492+P09471;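 active means below 25% or above 175%, edge rows of some plates excepted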;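 further: Galphao activated by GDP with aluminum fluoride before binding; 100% = wells without compound and 0% = beads without RGS; some results beyond the cut were filed as inactive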
# INS promoter inh: TRM-6 insulin promoter activity inhibition; 0.9% of 130,000 active; TRM-6 cells (human fetal islet line), insulin promoter-eGFP reporter, imaging; reporter expression induced with tamoxifen; AID 1273; inhibition, % at 2 µM;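 active means inhibition above the mean plus 3 SD, with well images judged a real hit on visual review, cut at about 60% in these data, passing the limit was not always enough; inconclusive means inhibition over the cutoff but images rejected on review; inactive means inhibition not above the cutoff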
# HSV augment: HSV replication enhancement; HSV replication augmentation in cells, fold increase; maximum fold increase; 0.005% of 220,000 active;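 active means peak rise of 1.5-fold or more in the series; inconclusive means self-fluorescent or not available for retest; tested in PC3 cells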;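 further: first round at 10 µM; read as green reporter fluorescence; hits show the peak of a series up to 25 µM; 1 = signal of infected wells without compound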
# INS promoter inh cell count: also measured in INS promoter inh; calls as there; normalized cell count, %; measured here: cell count, toxicity; reference of the scale not given here;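 cells exposed to compound for 48 h; stained nuclei by imaging scaled within each plate; lower means fewer cells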
# HSV augment primary fold: further read-out of HSV augment, marked with its call; fold increase; compound at 10 µM; measured here: primary screen fold increase 10 uM; tested in PC3 cells;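 GFP signal in the first replicate; 1 = infected wells without compound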
# Active calls of the source: *; i = inactive; ? = inconclusive; . = not tested or not shown.
SMILES,PKD1 kinase inh,GALR2 agonist,RGS16-Gao,INS promoter inh,INS promoter inh cell count,HSV augment,HSV augment primary fold
NC(=O)C1(N2CCCCC2)CCN(C(=O)c2ccc(C#Cc3ccccc3)o2)CC1,6,-0.6,99,-38,51,i,1
COc1cccc(OCC(O)CN2CCOCC2)c1 (stereo unspecified),8,-1.4,112,.,.,i,1.1
N#CCSc1nc(-c2ccccc2)c2cc(Cl)ccc2n1,-17,-0.7,98,17,98,i,0.88
Cc1ccc(NC(=O)CSc2nnc(Cn3cnc4ccccc43)o2)c(C)c1,2,-1.4,103,28,147,i,0.94
O=C(COC(=O)c1ccc([N+](=O)[O-])s1)NC(=O)NCc1ccccc1,-1,.,98,.,.,i,0.97
Oc1ccc(/C=N/Nc2ccnc3cc(Cl)ccc23)cc1O,.,.,86,.,.,i,0.94
CCN(CC)C(=O)CN1C(=O)C2(NC(=O)c3ccccc3N2)c2ccccc21 (stereo unspecified),-4,.,102,.,.,i,1.2
O=C(NCc1ccncc1)C(=O)NC1CC1,5,.,101,38,89,i,1
O=C(C1Cc2ccccc2O1)N1CCCCC1 (stereo unspecified),-10,-2.5,96,.,.,i,1
CCOc1ccc(NC(=O)[C@@H](NC(=O)c2ccccc2)[C@@H](C)CC)cc1,-7,-0.5,104,-11,101,i,1

# Part of the list above in order of length of the SMILES, ascending:
SMILES,PKD1 kinase inh,GALR2 agonist,RGS16-Gao,INS promoter inh,INS promoter inh cell count,HSV augment,HSV augment primary fold
O=C(C1Cc2ccccc2O1)N1CCCCC1 (stereo unspecified),-10,-2.5,96,.,.,i,1
CCN(CC)C(=O)CN1C(=O)C2(NC(=O)c3ccccc3N2)c2ccccc21 (stereo unspecified),-4,.,102,.,.,i,1.2
NC(=O)C1(N2CCCCC2)CCN(C(=O)c2ccc(C#Cc3ccccc3)o2)CC1,6,-0.6,99,-38,51,i,1

# (more compounds)
SMILES,PKD1 kinase inh,GALR2 agonist,RGS16-Gao,INS promoter inh,INS promoter inh cell count,HSV augment,HSV augment primary fold
Cc1ccc(NC(=O)C2CC(=O)NC(N3CCc4ccccc43)=N2)cc1 (stereo unspecified),-6,-1.7,104,.,.,i,0.86
CCCCOc1ccccc1NC(=O)Cn1c(-c2nonc2N)nc2ccccc21,-13,7.8*,93,.,.,i,0.86
COc1ccc(NC2=C(Cl)C(=O)N(CCc3ccccc3)C2=O)c(OC)c1,-8,-0.4,104,-11,112,i,0.98
Nc1nc2n(n1)C(=O)CC(c1ccc(Cl)cc1)N2 (stereo unspecified),-5,.,91,42,78,i,0.93
COCCNC(=O)[C@H](C)[C@H]1C[C@]1(C)[C@H](NC(=O)OCc1ccccc1)c1ccccc1,-7,-0.8,84,-120,131,i,0.7
Cc1ccccc1NC(=O)c1ccc(Cn2cc([N+](=O)[O-])cn2)o1,4,.,95,.,.,i,0.91
CC(C)(C)c1cc(NCCCn2ccnc2)n2ncc(-c3ccccc3)c2n1,.,.,104,.,.,i,0.83
O=C1N/C(=C/c2cccs2)C(=O)N1Cc1ccc(F)cc1,-1,.,97,.,.,i,1
COc1ccc(CCNC(=O)C2CCC(CNS(=O)(=O)c3ccc(F)cc3)CC2)cc1OC (stereo unspecified),1,.,96,.,.,i,0.94
O=c1c2ccccc2nc(SCc2cc([N+](=O)[O-])cc3c2OCOC3)n1-c1ccccc1,-4,-1.4,102,37,93,i,1.1
CCO[C@@H]1OC(C(=O)NC2CC2)=C[C@H](C(C)(C)C)[C@H]1CCCO,.,.,101,.,.,i,1
Cc1cc(C(F)(F)F)n(-c2nc(C(=O)O)cs2)n1,-2,.,151,-9,68,i,0.97
Cc1nnc(NC(=O)CSc2nccn2-c2cccc(C)c2C)s1,10,-3.8,106,.,.,i,0.46
Cc1c(NC(=O)CSc2ccccn2)c(=O)n(-c2ccccc2)n1C,4,-0.1,103,-151,111,i,0.97
CCOC(=O)c1cnc2c(cnn2C)c1NCc1ccc(OC)cc1,-2,.,104,.,.,i,0.81
Cc1cccc2sc(NC(=O)CN3C(=O)c4ccccc4C3=O)nc12,0,-0.3,101,.,.,i,0.87
CCOC(=O)c1cc(-c2ccc(Cl)cc2)nc2onc(C)c12,-7,-0.5,100,-21,128,.,.
CCC(=O)Nc1nc2ccccc2n1Cc1ccc(Cl)cc1,-5,.,102,.,.,i,0.86
CNS(=O)(=O)c1ccc2ccccc2c1,.,.,100,.,.,i,1.1
CCOc1ccccc1N1CCN(C(=S)NCc2ccccc2)CC1,1,.,68,-171,18,i,1.2

# Brought forward from above: two compounds; new compounds follow.
SMILES,PKD1 kinase inh,GALR2 agonist,RGS16-Gao,INS promoter inh,INS promoter inh cell count,HSV augment,HSV augment primary fold
CNS(=O)(=O)c1ccc2ccccc2c1,.,.,100,.,.,i,1.1
CCOc1ccccc1N1CCN(C(=S)NCc2ccccc2)CC1,1,.,68,-171,18,i,1.2
COC(=O)c1sccc1-n1cccc1C(=O)C(=O)N1CCOCC1,4,.,96,.,.,i,1.1
O=C(Nc1ccccc1-c1nc2ccccc2s1)c1cccnc1,4,0.7,75,11,80,i,0.98
Cc1ccc(-c2nc3c(cnn3-c3ccccc3)c(=O)o2)cc1,-4,-0.7,109,52,32,i,0.85
O=C/C(=C\Nc1ccccn1)c1nc2cc(Cl)ccc2o1,-7,0.6,104,-92,79,?,.
Cc1cc(C)n(-c2ccc(C(=O)OC(C)C)cc2)n1,13,-3.6,68,.,.,i,0.85
CCOc1ccc(S(=O)(=O)Nc2ccc(C(=O)N/N=C(\C)c3ccc(-n4ccnc4)cc3)cc2)cc1,-3,-1.4,162,-62,58,i,0.87
Cc1ccc(N(C(=O)c2ccncc2)C2C=CS(=O)(=O)C2)cc1 (stereo unspecified),-1,-1.6,90,.,.,i,0.97
O=C(Nc1ccncc1)C1CCN(S(=O)(=O)c2cccs2)CC1,-4,.,101,.,.,i,0.86
O=C(CCc1nnc(-c2ccsc2)o1)N1CCCCC1CCn1ccnc1 (stereo unspecified),0,.,103,-39,111,i,1.2
O=C(O)CC1Sc2nc3ccccc3n2C1=O (stereo unspecified),3,0.2,105,0,76,.,.
CCOC(=O)N1CCC(Nc2c(NCCCN(C)Cc3ccccc3)c(=O)c2=O)CC1,-2,-2.4,103,.,.,i,0.99
CCC(C)N(C(=O)CSc1nc(-c2ccccc2)cs1)C1CCS(=O)(=O)C1 (stereo unspecified),0,0.2,100,-14,145,i,0.89
CCCn1nnc(NC(=O)c2ccc3c(c2)OCO3)n1,.,.,99,.,.,i,0.96
COc1ccc(CCCC(=O)N/N=C/c2ccc(C)cc2)cc1,-6,.,96,7,119,i,0.86
O=C(CN1CCOc2ccccc21)N1CCC(Cc2ccccc2)CC1,-6,-1.6,.,.,.,i,0.98
O=C1C2C3C=CC(C3)C2C(=O)N1CCN1CCN(S(=O)(=O)/C=C/c2ccccc2)CC1 (stereo unspecified),-3,.,96,.,.,i,1.1
CCCCCc1c(C)nc(Nc2ccccc2)[nH]c1=O,21,0.0,101,.,.,i,0.94
CSc1nccc(Oc2cccc(C#N)c2)n1,-7,0.9,99,3,106,i,0.92
Cc1ccc2nc(SCC(=O)c3ccc4c(c3)OCO4)[nH]c2c1,-4,-0.3,96,0,119,i,0.98
Cc1ccc(-n2nnc3c(=O)n(Cc4cc(C)ccc4C)cnc32)cc1,-6,-1.2,110,61,128,i,0.89
Cc1ccccc1NC(=O)NCC1CCN(C(=O)OC(C)(C)C)CC1,.,.,99,.,.,i,0.99
O=C(c1cn(-c2ccccc2)nc1-c1cccs1)N1CCOCC1,-11,-1.5,102,-47,91,i,0.91
Cc1ccc(-c2cc(C(=O)NCCCN3CCOCC3)no2)cc1,3,-0.2,107,23,109,i,0.83
O=C(O)CC(NC(=O)CCC1CCCCC1)c1cc([N+](=O)[O-])ccc1Cl (stereo unspecified),1,.,102,25,92,i,1
O=C(O)CCCCCN1C(=O)c2ccc(C(=O)O)cc2C1=O,-3,-1.5,105,.,.,i,0.96
Cc1ccccc1C(=O)NNc1ccc(-c2csnn2)cc1,.,.,104,.,.,i,1.1
Cc1cccc(N2CCN(C(=O)CN3CCOc4ccccc43)CC2C)c1 (stereo unspecified),-9,-2.9,102,.,.,i,1.6
Cc1cc(NC(=O)c2ccc(C)s2)n(-c2ccccc2)n1,3,-0.4,90,29,83,i,0.8
CCN(c1ccccc1)S(=O)(=O)c1ccc(C(=O)Nc2nccs2)cc1,-3,-3.2,88,-3,106,i,0.82
C=CCn1c(SCc2cccc(C#N)c2)nnc1-c1ccccc1O,-2,-1.2,100,.,.,i,0.95
CCC(=O)Nc1cccc(C(=O)/C=C/c2cc(Br)ccc2OC)c1,-1,-3.8,113,94*,104*,i,0.82
CC(C)CNS(=O)(=O)c1ccc(OCC(=O)Nc2ccc3c(c2)OCCO3)cc1,5,-1.0,156,-129,53,i,1
O=C(CSc1ncn[nH]1)NC12CC3CC(CC(C3)C1)C2,-3,-0.8,103,18,169,i,0.97
CCn1c(N2CCN(C(=O)Nc3ccc(F)cc3)CC2)nc2ccccc21,-3,-0.7,93,-41,69,i,0.97
O=C(NCc1cccc(Cl)c1)c1cccc(C(F)(F)F)c1,-15,-0.4,107,-17,120,i,0.94
Cc1occc1C(=O)Nc1nnc(C2CCCCC2)s1,-3,0.6,104,.,.,i,0.85
CCOC(=O)c1ccc(N2C(=O)C(CC(N)=O)N(CCc3ccc(OC)c(OC)c3)C2=S)cc1 (stereo unspecified),-3,.,100,.,.,i,0.84
CC1=CC(C)(C)n2c(O)c(N=N)c3cc(C)cc1c32,8,-0.3,35,6,98,i,0.95
CC(=O)NS(=O)(=O)c1ccc(NC(=O)/C=C/c2ccc(C)o2)cc1,10,.,72,.,.,i,1.1
Cc1c(C(=O)N(C)C)sc2nc(-c3ccccn3)[nH]c(=O)c12,-4,-3.6,98,17,128,i,0.92
O=C(CNC(=O)c1cccs1)NCC(=O)OCc1cccc(Cl)c1,3,-2.6,102,.,.,i,0.96
CC(=O)NC(=S)Nc1ccccc1F,-8,.,108,.,.,i,0.89
COc1cccc(Cn2c(=O)c3ccccc3n3nc(C)cc23)c1,-4,.,104,.,.,i,0.8
Cc1cc(C(=O)CSc2nnnn2C)c(C)n1-c1cccc(F)c1,-3,-3.2,77,.,.,i,0.73
COc1ccc(C2C(=O)N(CCc3ccccc3)CC(=O)N2C2CCCCC2)cc1 (stereo unspecified),-5,0.3,98,-16,166,i,1.2
CN(C)S(=O)(=O)c1cccc(NC(=O)COC(=O)CCc2nc3ccccc3s2)c1,-2,-4.2,213,-30,100,i,0.93
O=C(COc1ccc(CO)cc1)Nc1ccc(F)cc1,-15,-1.2,95,30,97,i,1
CC1CC(C)CN(c2ccc(C(=O)OCC(=O)NC3CCCc4ccccc43)cc2[N+](=O)[O-])C1 (stereo unspecified),-7,-1.5,98,12,80,i,1
CCOc1ccc(N2C(=O)CC(N3CCN(c4ccccc4F)CC3)C2=O)cc1 (stereo unspecified),0,-3.3,105,-4,122,.,.
COc1ccc(NS(=O)(=O)c2cc(NC(=O)c3ccc(F)cc3)ccc2OC)cc1,-6,0.6,107,20,154,i,0.92

# Whole records from above:
# Listed for Cc1cc(C(=O)CSc2nnnn2C)c(C)n1-c1cccc(F)c1 → PKD1 kinase inh: -3; GALR2 agonist: -3.2; RGS16-Gao: 77; INS promoter inh: .; INS promoter inh cell count: .; HSV augment: i; HSV augment primary fold: 0.73
# Listed for CN(C)S(=O)(=O)c1cccc(NC(=O)COC(=O)CCc2nc3ccccc3s2)c1 → PKD1 kinase inh: -2; GALR2 agonist: -4.2; RGS16-Gao: 213; INS promoter inh: -30; INS promoter inh cell count: 100; HSV augment: i; HSV augment primary fold: 0.93

# More structures follow.
SMILES,PKD1 kinase inh,GALR2 agonist,RGS16-Gao,INS promoter inh,INS promoter inh cell count,HSV augment,HSV augment primary fold
O=C(COc1ccc(F)cc1)NNC(=O)c1cc2ccccc2oc1=O,-5,-0.1,94,11,102,i,1.1
O=C(N/N=C/c1cnc(N2CCCCC2)s1)c1ccc(C(F)(F)F)cc1,0,.,104,.,.,i,0.88
Cc1nc(N[C@@H](Cc2ccccc2)C(=O)O)c2oc3ccccc3c2n1,-2,-1.0,99,39,119,.,.
Cc1cccc(NC(=O)c2cc(Cl)ccc2[N+](=O)[O-])c1,-4,-0.9,102,-33,158,i,0.93
C=CCn1c(SCc2ccc3nonc3c2)nnc1-c1cccs1,-12,-1.9,100,i,25,i,0.76
O=C(NCc1ccco1)C1CCCN(S(=O)(=O)c2cccc3cccnc23)C1 (stereo unspecified),-5,-1.9,106,.,.,i,0.84
CC(C)Oc1ccc(C(=O)NC(Cc2c[nH]c3ccccc23)C(=O)NN)cc1 (stereo unspecified),.,.,97,.,.,i,0.87
NN/C(=C\[N+](=O)[O-])Nc1ccccc1,2,.,102,31,154,.,.
CCn1c2ccc(C)cc2c2nnc(SCCN3CCOCC3)nc21,0,.,111,.,.,i,0.96

# Not a hit list, and some 1.3% of all compounds hit somewhere here.
